GIRK2 act – activators of human GIRK2 potassium channels; HEK293-GIRK2 thallium flux, Thallos fluorescence; AID 1259325; P48051; 63,000 tested, 0.05% active; calls only for hits at 25 µM;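 active means among the strongest 0.2% of first-round signals and kept after retests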;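 further: first round at about 10 µM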
Target sequence (P48051 whole entry, looked up): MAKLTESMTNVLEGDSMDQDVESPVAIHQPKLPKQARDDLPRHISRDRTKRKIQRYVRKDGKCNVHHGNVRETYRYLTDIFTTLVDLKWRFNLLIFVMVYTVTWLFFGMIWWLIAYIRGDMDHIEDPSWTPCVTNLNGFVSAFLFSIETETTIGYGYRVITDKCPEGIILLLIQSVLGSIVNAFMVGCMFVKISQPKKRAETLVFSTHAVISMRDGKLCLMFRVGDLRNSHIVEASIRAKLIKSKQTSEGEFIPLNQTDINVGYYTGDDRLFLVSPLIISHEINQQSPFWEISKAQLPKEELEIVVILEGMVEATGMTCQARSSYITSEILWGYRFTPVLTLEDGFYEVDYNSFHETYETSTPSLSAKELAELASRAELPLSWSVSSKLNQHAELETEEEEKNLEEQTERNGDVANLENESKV
Calls only; i = inactive. The list is partial; count on the stated rates, not on these rows.

SMILES | GIRK2 act
COc1cc2c(cc1OC)CN(C(=O)c1cc(-c3ccc(F)cc3)nn1C)CC2 | i
COc1cccc(C(=O)Nc2cc(C(=O)N3CCCC3)cn(C)c2=O)c1OC | i
O=S(=O)(c1ccc(Cl)c(Cl)c1)N1CCN(c2ccc(-n3cccc3)nn2)CC1 | i
COc1nn(C)cc1C(=O)Nc1ccc(C(=O)N2CCC3(CC2)OCCO3)cc1 | i
O=C(CSc1ccc(F)cc1)Nc1ccc(-n2nnn(CC(=O)NC3CC3)c2=O)cc1 | i
Cc1ccc(N2CC(C(=O)NCc3cnn4ccccc34)CC2=O)cc1 (stereo not given) | i
O=C(Nc1cccc(-n2cnnn2)c1)C1=Cc2ccccc2OC=C1 | i
COC(=O)c1c(C)oc2ccc(OCC(N)=O)cc12 | i
COCCn1c(SCc2nc(-c3cccs3)no2)nc2cc3c(cc2c1=O)OCO3 | i
O=C(NCC1CCN(C(=O)c2ccoc2)CC1)c1ccccc1Cl | i

Next section; it opens with the 4 that closed the last part.
SMILES | GIRK2 act
O=C(Nc1cccc(-n2cnnn2)c1)C1=Cc2ccccc2OC=C1 | i
COC(=O)c1c(C)oc2ccc(OCC(N)=O)cc12 | i
COCCn1c(SCc2nc(-c3cccs3)no2)nc2cc3c(cc2c1=O)OCO3 | i
O=C(NCC1CCN(C(=O)c2ccoc2)CC1)c1ccccc1Cl | i
CC(C)(C)c1ccc(NC(=O)N2CCC(Oc3ccccn3)CC2)cc1 | i
COc1cccc(-c2nc(Cn3nnc(C(=O)Nc4ccc(F)c(Cl)c4)c3N)c(C)o2)c1OC | i
O=C(NC1CCCCC1)c1ccc(Cn2c(=O)[nH]c3ccccc3c2=O)cc1 | i
COc1ccc(CNC(=O)c2c(N)n(/N=C\c3ccco3)c3nc4ccccc4nc23)cc1 | i
CC(C)(Oc1ccc(Cl)cc1)C(=O)NCc1ccc(C(O)c2cccs2)s1 (stereo not given) | i
O=C1CC(c2nc(-c3cccs3)no2)CN1Cc1ccco1 (stereo not given) | i
CCCNC(=O)Cn1nc2c(c1NC(=O)c1cccc(OC)c1OC)CSC2 | i
CCOCCn1c(N2CCN(Cc3ccccc3F)CC2)nc2c1c(=O)[nH]c(=O)n2C | i
Cc1ccc(Cl)cc1NC(=O)CN1CCN(c2ccc(F)cc2)CC1 | i
Cc1ccc(N2CC(O)Cn3c2nc2c3c(=O)n(C)c(=O)n2C)cc1 (stereo not given) | i
COc1cccc(OCC(=O)Nc2cc(C)nn2-c2nc3ccc(OC)cc3s2)c1 | i
Fc1ccccc1-c1nnc2sc(/C=C/c3cccs3)nn12 | i
Cc1c(C(=O)Nc2ccc3oc(=O)ccc3c2)oc2ccccc12 | i
CCOc1ccc(NC(=O)Cn2cccc(-c3nc(-c4ccccc4C)no3)c2=O)cc1 | i
O=C(/C=C/c1ccco1)Nc1ccc2c(c1)N(C(=O)c1cccs1)CC2 | i
COc1ccc(-c2c(C)oc3c4c(ccc3c2=O)OCN(Cc2ccncc2)C4)cc1 | i
CSCC(C)(O)CNC(=O)c1cc(Cl)ccc1Cl (stereo not given) | i
O=C(CN1CCN(S(=O)(=O)c2cccnc2)CC1)c1cccs1 | i
COc1ccc(C2C(=C(O)c3ccc(Cl)cc3)C(=O)C(=O)N2c2ccccn2)cc1OC (stereo not given) | i
Cc1ccc2c(Nc3ccc(CC(=O)O)cc3)c(C(=O)N3CCCC3)cnc2n1 | i
COc1ccc(CNC(=O)N2CCCC(c3nnc(-c4ccccc4F)s3)C2)cc1 (stereo not given) | i
CC(C)(C)c1csc(CN2CCN(CC(=O)N3CCOCC3)CC2)n1 | i
Cc1ccc(-c2cc3c4nn(CC(=O)NC5CCCC5)c(=O)n4ccn3n2)cc1C | i
COc1cccc(Oc2c(C(F)(F)F)oc3cc(OC(C)=O)ccc3c2=O)c1 | i
CCc1ccc(N2C(=O)C3N=NN(Cc4nc(-c5cccc(Cl)c5)oc4C)C3C2=O)cc1 (stereo not given) | i
O=C(NCc1cccnc1)N1CCOCC1 | i
CSc1ccccc1NC(=O)C(=O)NCCC(O)c1ccccc1 (stereo not given) | i
Cc1cc(NC(=O)C2CCN(c3ccc(=O)n(C)n3)CC2)ccc1Br | i
COc1cc(NC(=O)Cn2c(N3CCOCC3)nc(C)cc2=O)cc(OC)c1 | i
CCN1CCN(c2nc3c(c(=O)[nH]c(=O)n3C)n2CC(O)COc2cc(C)ccc2C(C)C)CC1 (stereo not given) | i
Cc1ccc(S(=O)(=O)NC2CC(C)(C)NC(C)(C)C2)cc1 | i
CC(C)CCNC(=O)c1c(N)n(/N=C\c2cccnc2)c2nc3ccccc3nc12 | i
CCOc1ccc(CC(=O)Nc2cc(-c3cccs3)nn2-c2nc(C(C)C)cc(=O)[nH]2)cc1 | i
O=C(Cn1nc2c(c1NC(=O)c1ccco1)CSC2)NCc1ccccc1 | i
O=c1c(-c2ccccc2)coc2cc(OCc3ccccc3F)ccc12 | i
COc1ccccc1-c1noc(Cn2cnc3c(cnn3-c3ccc(C)cc3)c2=O)n1 | i
O=C(NCc1ccc(C(O)c2cccs2)s1)c1cc(Br)ccc1Cl (stereo not given) | i
CCOc1ccc2c(=O)c(Oc3ccccc3OC)c(C)oc2c1 | i
CC(O)Cn1c(N)nc2c1c(=O)[nH]c(=O)n2C (stereo not given) | i
CCOc1ccc(-c2csc3c(=O)[nH]c(N4CCN(c5ccccc5)CC4)nc23)cc1OCC | i
CC(=O)c1ccc(N2CCN(C(=O)CSc3nnc(CCc4nc5ccccc5[nH]4)o3)CC2)cc1 | i
Cc1noc(C2CN(C(=O)NCc3ccc(Cl)cc3)C2)n1 | i
COc1cccc2c1OC(C)C(=O)N(c1cccc(Br)c1)C2 (stereo not given) | i
Cc1cc(=O)[nH]c(-n2ncc(C(=O)Nc3cccc(C(F)(F)F)c3)c2C)n1 | i
COC(=O)Cn1c(=O)c2c(nc3n(-c4cccc(C)c4)c(-c4ccccc4)cn23)n(C)c1=O | i
COCCN(Cc1ccsc1)C(=O)NCCc1ccc(OC)cc1 | i
COc1cccc(CNC(=O)C(=O)NCC(C)(O)CSC)c1 (stereo not given) | i
CSc1cccc2sc(N(Cc3ccco3)C(=O)c3ccc(S(=O)(=O)N(C)C)cc3)nc12 | i
O=C(c1cc(-c2ccco2)[nH]n1)N1CCN(CCn2ccnc2-c2ccccc2)CC1 | i
COc1ccccc1C(=O)COC(=O)C(C)N1C(=O)c2ccccc2C1=O (stereo not given) | i
Going on with the list:
SMILES | GIRK2 act
O=C(CNC(=O)c1ccc(=O)[nH]c1)Nc1ccncc1 | i
O=C(O)c1nnn(-c2ccccc2F)c1C(F)(F)F | i
O=C(NC1CCN(C(=O)c2cn(-c3cccc(Cl)c3)nn2)CC1)c1ccccc1F | i
NC(=O)c1ccccc1OCC#CCNC(=O)CCn1ccc(=O)[nH]c1=O | i
COC(=O)c1ccc(Oc2c(C)oc3cc(OCC#N)ccc3c2=O)cc1 | i
N#Cc1nc(-c2ccc(S(=O)(=O)N3CCCC3)cc2)oc1N1CCN(c2ccccc2)CC1 | i
CCOc1ccc(-c2ccc(=O)n(CCNS(=O)(=O)c3ccccc3)n2)cc1 | i
O=C(NCCC(O)c1ccccc1)c1ccccc1C(F)(F)F (stereo not given) | i
COc1cccc2sc(N3CC(C(=O)Nc4ccc(Br)cc4C)C3)nc12 | i
COc1ccc(-c2cc(N3CCC(C(=O)NCC(F)(F)F)CC3)ncn2)cc1 | i
O=S(=O)(c1cccnc1)N1C2CCC1COC2 | i
COc1ccc(S(=O)(=O)N(C)c2ccsc2C(=O)NCc2cccc(C(F)(F)F)c2)cc1 | i
CCOC(=O)c1ccccc1NC(=O)CSc1nnc(C)c2cnn(-c3ccccc3OC)c12 | i
O=C(NCCN1CCN(c2ccc(F)cc2)CC1)C1CC1 | i
COc1ccc(CNC(=O)NCCOc2cc(C)cc(C)c2)cc1OC | i
Cn1cc(OCc2ccccc2)c(=O)cc1C(=O)NCCc1ccc(F)cc1 | i
O=C(c1cnn(-c2ccccc2)n1)N1CCN(Cc2nc3ccccc3[nH]2)CC1 | i
COc1ccc2cc(CNc3ccccc3)c(=O)n(CC(=O)Nc3ccc(C)c(C)c3)c2c1 | i
CC(=O)c1ccc(NC(=O)CSc2ncnc3nc(N4CCCC4)sc23)cc1 | i
CCc1cccc2c3c([nH]c12)C(CC)(CC(=O)O)OCC3 (stereo not given) | i

A second format for some results above:
> CCOc1ccc(-c2csc3c(=O)[nH]c(N4CCN(c5ccccc5)CC4)nc23)cc1OCC
  GIRK2 act = i

> COc1ccc(C2C(=C(O)c3ccc(Cl)cc3)C(=O)C(=O)N2c2ccccn2)cc1OC (stereo not given)
  GIRK2 act = i

> COc1cccc2sc(N3CC(C(=O)Nc4ccc(Br)cc4C)C3)nc12
  GIRK2 act = i

> COc1ccc(CNC(=O)c2c(N)n(/N=C\c3ccco3)c3nc4ccccc4nc23)cc1
  GIRK2 act = i

(list continues)
SMILES | GIRK2 act
COc1ccc(S(=O)(=O)N2CCCC(c3nnc(Cc4ccccc4)s3)C2)cc1 (stereo not given) | i
O=C(CSc1ncnc2c(-c3ccccc3)c[nH]c12)NCc1ccc(Cl)cc1 | i
CC(C)CNC(=O)CCn1c(=O)c2ccccc2n2c(=O)n(C)nc12 | i
COc1cc(COCC2CCN(S(=O)(=O)c3cccc(C(C)=O)c3)CC2)cc(OC)c1 | i
Cc1c(C)n2c3c(=O)n(CCCc4ccccc4)c(=O)n(C)c3nc2n1Cc1ccco1 | i
C=CCOc1ccc(C2C(=C(O)c3ccc(F)cc3)C(=O)C(=O)N2CCCN(C)C)cc1 (stereo not given) | i
COc1cc2c(ccc3cc(OC)c(OC)c(O)c32)cc1O | i
O=C(Nc1cccc(F)c1)c1coc(NC(=O)C2CC2)n1 | i
CC(C)c1nccn1CC1CCN(C(=O)c2cnn(-c3ccccc3)n2)CC1 | i
CCOc1ccc(C(=O)Nc2ccc3c(c2)CCC(=O)N3Cc2ccccc2)cc1OCC | i
CN(C)C(CNC(=O)C(=O)Nc1ccc2c(c1)OCO2)c1ccc2c(c1)CCO2 (stereo not given) | i
CCOC(=O)c1csc(NC(=O)C2CCCN(c3cc(-n4cccn4)ncn3)C2)n1 (stereo not given) | i
Cc1ccc(NC(=O)c2csc(Nc3ccc(S(C)(=O)=O)cc3)n2)cc1C | i
COc1ccc(C(=O)N2CCN(c3oc(/C=C/c4ccc(Cl)cc4)nc3C#N)CC2)cc1 | i
COc1ccc(-n2c(C)c(C)n3c4c(=O)n(CCN5CCCCC5)c(=O)n(C)c4nc23)c(OC)c1 | i
CS(=O)(=O)N1CCC(C(=O)NCC2(CO)CC2)CC1 | i
Cn1nc(C(=O)N2CCC(Cn3ccnc3)CC2)ccc1=O | i
CCn1cnc2c(-c3ccccc3)cn(CC(=O)Nc3cccc(Br)c3)c2c1=O | i
COc1cccc(C(=O)Nc2ccnc3ccc(F)cc23)c1 | i
COc1cc(NS(=O)(=O)c2ccc(C)cc2C)ncn1 | i
Cc1noc(C)c1S(=O)(=O)N1CCOC(c2ccccc2)C1 (stereo not given) | i
Cc1cc(C(=O)NC2CC(O)C(CO)C2)c(C)o1 (stereo not given) | i
CCOC(=O)C1CCN(C(=O)CN(C)c2nc3c(C)ccc(C)c3s2)CC1 | i
CCOc1ccc(C2c3c(oc4ccccc4c3=O)C(=O)N2CCN2CCOCC2)cc1 (stereo not given) | i
CCOc1ccc(C2CC(c3ccccc3NS(C)(=O)=O)=NN2C(=O)C(C)C)cc1 (stereo not given) | i
C=CCn1c(=O)c2c(nc3n(-c4ccccc4OCC)c(C)cn23)n(C)c1=O | i
COc1ccc(OCc2noc(CNC(=O)c3cc(-c4ccco4)on3)n2)cc1 | i
Cc1cccc2sc(N3CC(OC(=O)/C=C/c4cccs4)C3)nc12 | i
O=C(NCCOc1ccccc1)c1ccc2c(c1)OCO2 | i
O=C(Nc1cnc(Oc2ccccc2F)nc1)Nc1ccc2c(c1)OCCO2 | i

Overlap with the part before: 3 compounds; new compounds follow.
SMILES | GIRK2 act
Cc1cccc2sc(N3CC(OC(=O)/C=C/c4cccs4)C3)nc12 | i
O=C(NCCOc1ccccc1)c1ccc2c(c1)OCO2 | i
O=C(Nc1cnc(Oc2ccccc2F)nc1)Nc1ccc2c(c1)OCCO2 | i
CSc1ccccc1CN1CCC(CNC(=O)C(=O)NCCC2=CCCCC2)CC1 | i
Cc1cc(F)ccc1S(=O)(=O)N(CCc1cccs1)Cc1ccco1 | i
O=C(c1ccco1)N1CCN(c2nc(Nc3ccc(F)cc3)c3n[nH]nc3n2)CC1 | i
O=C(NCC1CCN(Cc2ccsc2)CC1)C(=O)Nc1cc2c3c(c1)CCN3C(=O)CC2 | i
Cc1cc(C)c(S(=O)(=O)Nc2ccc3c(c2)CCCN3S(C)(=O)=O)c(C)c1 | i
COc1ccc(-c2ccc(N3CCN(S(=O)(=O)c4cccs4)CC3)nn2)cc1OC | i
COCCn1nnn(-c2ccc(NC(=O)C(C)(C)Oc3ccc(Cl)cc3)cc2)c1=O | i
Cc1cc(C(=O)Nc2cccc3ccc(-n4ccnc4)nc23)no1 | i
CCCNC(=O)NC(C)C12CC3CC(CC(C3)C1)C2 (stereo not given) | i
Cn1nc(CNC(=O)C2CCN(S(C)(=O)=O)CC2)cc1C1CC1 | i

Two compounds drawn at random from those above, as already listed:
SMILES | GIRK2 act
O=C(Nc1cnc(Oc2ccccc2F)nc1)Nc1ccc2c(c1)OCCO2 | i
Cc1cc(C(=O)Nc2cccc3ccc(-n4ccnc4)nc23)no1 | i

Further entries follow.
SMILES | GIRK2 act
CSC1=NCCN1S(=O)(=O)c1ccc(Br)cc1 | i
O=C(Nc1nc2c(s1)CN(C(=O)Nc1ccc3c(c1)OCO3)CC2)C1CC1 | i
CNC(=O)Cc1csc(NC(=O)C2COCC(=O)N2Cc2ccccc2)n1 (stereo not given) | i
COc1cc(C)c(C)cc1S(=O)(=O)N1CCC2(CC1)OCCS2 | i
COc1ccccc1CNC(=O)c1c(O)c2cccnc2n(-c2ccccc2)c1=O | i
Cn1c(=O)c2c(ncn2CC(=O)Nc2ccccc2S(C)(=O)=O)n(C)c1=O | i

Compound activity from PubChem.
